Mtb H37Rv = Confirmatory growth inhibition assay against Mycobacterium tuberculosis H37Rv, potency (AID 1949); inhibition, % at 10 µg/mL, or IC50 in µg/mL where a hit was titrated; actives 1.6% (n = 100,000); most inactive calls were filed without a number and no value below 0 was filed;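 active = confirmed in a dose series; inconclusive = about 50% or more but not retested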;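 note: bacteria grown 7 days with compound before Alamar blue readout; 0% = untreated bacteria and 100% = reference antibiotic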
Active calls of the source: *; i = inactive; ? = inconclusive.

SMILES	Mtb H37Rv
N#COc1ccc(Oc2ccc(OC#N)cc2)cc1	3.3%
Fc1ccc(N2CCN(C(=S)Nc3ccc(Oc4ccccc4)cc3)CC2)cc1	i
O=c1oc2cc(OCc3ccc4ccccc4c3)ccc2c2c1CCC2	i
Cc1ccc(S(=O)(=O)NC2CCCCC2C)cc1C (stereo not given)	i
CCCn1nnc(NC(=O)COc2ccc(C)cc2)n1	36.8%
COc1ccc(Cl)cc1NC(=O)C1COc2ccccc2O1 (stereo not given)	i
CN(C)C(=O)Oc1cccc([N+](=O)[O-])c1	i
O=C(O)C1CCCCC1C(=O)Nc1ccc(Cl)cc1F (stereo not given)	i
COc1ccc(NC(=O)NCc2cccs2)cc1OC	7.5%
N#Cc1c(NC(=O)COc2ccc3c(-c4ccccc4)cc(=O)oc3c2)sc2c1CCC2	i
CCOc1cc(C(=O)O)cc(Cl)c1OCC#N	i
COc1cc(/C=C/c2ccc3cccc(O)c3n2)cc([N+](=O)[O-])c1O	0.41µg/mL*
Cc1cccn2c(=O)c3cc(C#N)c(=N)n(CC4CCCO4)c3nc12 (stereo not given)	i
Cc1ccc(C(=O)Nc2cccc([N+](=O)[O-])c2C)cc1Br	i
Cc1ccc(C(=O)N(Cc2ccccc2)C(C)(C)C)c(Cl)c1	i
CCOc1ccccc1C(=O)Nc1ccc(CC#N)cc1	i
Oc1ccccc1/C=C/c1noc(-c2ccccc2O)n1	i
Cc1c(C(C)NC(=O)c2cccc([N+](=O)[O-])c2)cnn1C (stereo not given)	i
CC(Oc1ccc(Br)cc1)C(=O)NCc1ccco1 (stereo not given)	i
Cc1c(Cl)c([N+](=O)[O-])nn1CC(=O)N1CCN(Cc2ccccc2)CC1	i
COc1ccc(CCNCC2CCCO2)cc1 (stereo not given)	0.2%
Cc1cc(C(C)(C)C)ccc1OCCCCn1ccnc1	1.4µg/mL*
Cc1ccc(SCC(=O)Nc2ccc(CSc3ccccc3)cc2)cc1	5.7%
O=C(NC(=S)Nc1ccccc1N1CCCC1)c1cccc2ccccc12	0.36µg/mL*
COc1ccccc1NC(=O)C1(c2ccc(OC)c(OC)c2)CCCC1	i
COc1ccc(N2CCN(c3nc(N4CCOCC4)nc(N4CCOCC4)n3)CC2)cc1	i
COC(=O)COc1ccc(S(=O)(=O)Nc2cccc(Br)c2)cc1Cl	i
O=C(O)c1ccccc1NS(=O)(=O)c1cccc2ccccc12	i
Cc1cc(C)c2c3c(sc2n1)C1(CCOCC1)C(C#N)=C(N)O3	i
C=CCc1ccccc1OCCCN1CCCCCC1	i
COc1ccc(S(=O)(=O)N2CCC(C(=O)Nc3cccc([N+](=O)[O-])c3)CC2)cc1Cl	i
O=C1CC(c2ccccc2)OC12CCCCC2 (stereo not given)	0.3%
O=C(CCc1ccccc1)Nc1cc(C(F)(F)F)ccc1N1CCOCC1	i
Cc1ccc2nc(SCC(=O)Nc3nc4c(C)cccc4s3)[nH]c2c1	i
Cc1c(NC(=O)/C=C/c2cn(-c3ccccc3)nc2-c2ccccc2)c(=O)n(-c2ccccc2)n1C	3.3%
COC(=O)c1ccc(C(=O)OC)c(NC(=O)CCC(=O)Nc2cc(C(=O)OC)ccc2C(=O)OC)c1	i
O=C(Nc1ccc(CN2CCOCC2)cc1)C(Cl)(Cl)Cl	i
CC(C)=CCC12CN3CCN(CC(C3)C1=O)C2	i
COCCn1c(=O)c2cc3c(=O)n(CCOC)c(=O)c3cc2c1=O	i
O=C(O)Cc1c[nH]c2ccccc12	2.3%
O=C(Nc1cccnc1)c1cnn2c(C(F)F)cc(C3CC3)nc12	i
S=C(NCc1ccco1)NCC1CCCO1 (stereo not given)	i
COc1ccc(CC(=O)n2nc(-c3cccnc3)nc2N)cc1	i
Cc1cc2oc(C(=O)Nc3nnc(SCc4ccccc4)s3)c(C)c2cc1C	2.8%
COc1cc(OC)c(C(=O)Nc2cccc(Br)c2)cc1OC	i
O=C1CC(c2ccccc2)CC2=C1C(c1ccc(Cl)cc1)C1=C(N2)c2ccccc2C1=O (stereo not given)	i
N#Cc1c(NC(=S)NC(=O)c2ccc(Cl)cc2Cl)sc2c1CCCCC2	3.36µg/mL*
O=C(CN1C(=O)c2ccccc2C1=O)Nc1ccc(-c2ccccc2)cc1	i
COc1ccc(C2(CNC(=O)C(=O)NCC3(c4ccccc4)CCCC3)CCOCC2)cc1	i
COCCSc1ccccc1C(=O)Nc1ccc(Cl)cc1	i

(cont.)
SMILES	Mtb H37Rv
CCN(CC)C(=O)c1csc(-c2ccccc2)c1-c1ccccc1	i
Cc1cc(C)n(-c2nc3ccccc3nc2N2CCN(S(=O)(=O)c3ccccc3)CC2)n1	i
CC1CCN(S(=O)(=O)c2ccc(C3CCCCC3)cc2)CC1	i
CSc1cccc(NC(=O)C2CCN(S(=O)(=O)c3cc(Cl)ccc3Cl)CC2)c1	0.1%
CC(C)CNS(=O)(=O)c1ccc(CCC(=O)Nc2ccc(Br)cc2F)cc1	i
C=CCn1c(SCCC(=O)Nc2ccc(C)cc2)nc2sc3c(c2c1=O)CCCC3	i
COc1cccc(C(=O)COc2cccc3ccccc23)c1	i
COc1ccc(NC(=O)C(OC)c2ccccc2)cc1Cl (stereo not given)	i
Cc1ccc(Cn2ncc3c(N4CCN(CC#N)CC4)ncnc32)cc1	i
C#CCOc1ccc(/C=C(/C#N)c2nc3ccc(C)cc3[nH]2)cc1OC	i
O=C(O)c1ccc(CNS(=O)(=O)c2c(Cl)cccc2Cl)cc1	2.6%
CSc1nc(-c2cccs2)cc(-c2ccccc2)c1C#N	i
C=CCN1C(=O)C(CC(=O)Nc2ccc(OC)cc2)N(CCc2ccccc2)C1=S (stereo not given)	2.2%
COc1ccc(S(=O)(=O)N2CCC(C(=O)N3CCN(c4ccccc4F)CC3)CC2)cc1	0.1%
Cc1cc(Br)ccc1OCC(=O)Nc1cccc(F)c1	i
O=C(CC(O)(c1ccccc1)C(F)(F)F)c1cccs1 (stereo not given)	2.0%
O=C(Nc1cccc(C(F)(F)F)c1)N1CCN(C(c2ccccc2)c2ccccc2)CC1	i
O=C(NS(=O)(=O)c1ccccc1)c1cccc([N+](=O)[O-])c1	i
O=C(Nc1cc(C(F)(F)F)cc(C(F)(F)F)c1)c1cccc(S(=O)(=O)N2CCOCC2)c1	i
Cc1ccc(NC(=O)C(C)Oc2cccc(Cl)c2)c(Br)c1 (stereo not given)	41.3%
CC1CCCCN1S(=O)(=O)c1ccc(NC(=O)c2cccnc2)cc1 (stereo not given)	i
CC1CCCCN1S(=O)(=O)c1ccc(Cl)c(C(F)(F)F)c1 (stereo not given)	i
CC(C)C1C(c2ccccc2)NC(c2ccccc2)CC1(O)Cc1ccccc1 (stereo not given)	18.0%
CN(C(=O)c1c(F)c(F)c(F)c(F)c1F)C(C)(C)C	5.5%
CCc1ccc(NC(=O)c2ccccc2C(F)(F)F)cc1	i
C=CCc1cc(Cl)ccc1OCCNC	i
CNC(=S)Nc1cc(Cl)ccc1OC	i
Cc1c(Br)cc(C(=O)N2CCN(c3cccc(Cl)c3)CC2)c(C)c1C	i
COC(=O)C(C)n1cnc2scc(-c3ccc(Br)cc3)c2c1=O (stereo not given)	0.7%
CCCc1sc2[nH]c(=S)n(-c3ccccc3)c(=O)c2c1C	i
COc1c(C)cc(Br)cc1C(=O)NC(=S)Nc1cccc(-c2nc3ccccc3[nH]2)c1	3.9%
CCc1ccc(CNCc2ccc(OC)cc2)cc1	i
O=C(c1ccccc1F)N1CCN(Cc2cccc(Oc3ccccc3)c2)CC1	i
O=C(Nc1cccc2ccccc12)C1CCCCN1S(=O)(=O)c1ccccc1 (stereo not given)	0.8%
COc1ccc(NC(=O)C(NC(=O)c2ccccc2)C(C)C)cc1 (stereo not given)	0.2%
COc1cc(CNCCc2ccccc2)ccc1OCC(=O)NC1CCCCC1	0.7%
CCOc1ccc(NC(=O)CC2Nc3cc(C)c(C)cc3NC2=O)c([N+](=O)[O-])c1 (stereo not given)	4.0%
CCOC(=O)c1c(-c2ccc(OC)c(OC)c2)csc1NC(C)=O	2.6%
O=C(NC(=S)Nc1cccc(NC(=O)c2ccccc2Cl)c1)c1ccc(Cl)cc1	i
O=c1cc(-c2ccco2)oc2c1ccc1ccccc12	i
O=C(Nc1sc2c(c1C(=O)NC1CCS(=O)(=O)C1)CCCC2)c1ccc(Cl)cc1 (stereo not given)	i
COC(=O)c1ccc(N2CCN(C)CC2)c(NC(=O)c2ccc(Br)o2)c1	i
O=C(CSCc1ccc([N+](=O)[O-])cc1)NC1CCCCCC1	i
O=C(CC1NC2CCCCC2NC1=O)Nc1ccc(Cl)cc1 (stereo not given)	i
O=C(Nc1ccccc1-n1cccc1)c1ccccc1Br	31.9%
Cc1ccc(S(=O)(=O)N2C(=O)CCC2C(=O)N2CCOCC2)cc1 (stereo not given)	i
Cc1nn(Cc2cccc(NC(=S)NCc3ccc(Cl)cc3)c2)c(C)c1Br	i
C=CCOC(c1ccccc1)c1nc2ccccc2n1CC=C (stereo not given)	i
CN(Cc1nc(-c2ccccn2)no1)S(=O)(=O)c1ccc(Cl)cc1	i
Nc1ncnc(Nc2cc(Cl)cc(Cl)c2)c1[N+](=O)[O-]	3.9%

Next part:
SMILES	Mtb H37Rv
Cc1ccccc1CN(c1ccc(C(=O)NCc2ccccc2)cc1)S(C)(=O)=O	i
CCOc1ccccc1NC(=S)Nc1ccc(Br)c(Cl)c1	i
Cc1cccc(NC(=O)C2CC(=O)OC23CCCC3)c1 (stereo not given)	i
Cc1ccc(CC(=O)Nc2ccc(Br)cc2)cc1	i
Cc1cc2c3c(c1)c(-c1ccccc1)c(C)n3CCC2	i
COc1ccc(C(=O)Nc2cc3nn(-c4ccccc4)nc3cc2C)cc1	i
O=C(O)c1cccc(S(=O)(=O)Nc2cccc3c([N+](=O)[O-])cccc23)c1	i
O=C(Nc1ccc(Br)cc1C(=O)O)c1ccc2c(c1)C(=O)N(Cc1ccccc1)C2=O	i
CCOC(=O)c1ccc(NC(=O)C2COc3ccccc3O2)cc1 (stereo not given)	?
COC(=O)C1=C(C)NC2=C(C(=O)CC(c3cccs3)C2)C1c1ccc(OC(C)=O)c(OC)c1 (stereo not given)	i
Cc1ccc(C(=O)O/N=C(\N)c2ccccn2)c(C)c1	7.0%
Cc1ccc2cccc(OCCCOc3ccc(C)c(C)c3)c2n1	3.4%
NS(=O)(=O)c1ccc(NC(=S)N2CCC(C(O)(c3ccccc3)c3ccccc3)CC2)cc1	i
COC(=O)c1cc(OC)c(OC)cc1NC(=O)COc1ccc(Br)c(C)c1	i
COc1ccc(C(=O)C(C)=O)c(OC)c1	0.5%
CCCn1nnnc1NC(=O)CSc1ccc(Cl)cc1	3.6%
O=C(Nc1ccccc1N1CCOCC1)c1ccc(COc2ccccc2)cc1	i
COc1ccc(Cl)cc1C(=O)O/N=C(\N)c1ccncc1	i
NS(=O)(=O)c1ccc(NC(=O)C(c2ccccc2)c2ccccc2)cc1	i
COc1ccc(C(C)=O)cc1CSc1nc2ccccc2o1	4.5%
Clc1ccc(OCc2nnc3c4cnn(Cc5ccccc5)c4ncn23)cc1	i
CCCn1cc(C2CC(=O)N(c3ccc(Br)cc3)C2=O)c2ccccc21 (stereo not given)	i
C=CCN1C(=O)C(O)(CC(=O)c2c(C)coc2C)c2cc(Br)ccc21 (stereo not given)	i
Cc1ccc(-c2csc(NC(=O)CSc3nnc(CNC(=O)c4ccccc4F)n3-c3ccccc3)n2)cc1	i
COc1ccccc1-c1c(Cc2ccccc2)[nH]n2c(=O)c3c(nc12)CCC3	1.9%
COc1ccc(C2C(C(=O)Nc3cc(C(F)(F)F)ccc3Cl)=C(C)NC3=C2C(=O)CCC3)cc1 (stereo not given)	i
CCOC(=O)c1c(NC(=O)CCCOc2ccc(Cl)cc2)sc(C)c1C	i
COc1cc(C2NC(=O)NC(C)=C2C(=O)NCc2ccccc2)c(Cl)cc1O (stereo not given)	2.5%
c1ccc(CCc2nn3c(-c4ccncc4)nnc3s2)cc1	i
COc1cc(Cl)c(C)cc1NC(=O)c1ccc(-c2ccccc2)cc1	i
O=C(O)c1cccc(COc2ccccc2Cl)c1	i
CCC(Oc1ccccc1)C(=O)Nc1cc(S(=O)(=O)N(CC)CC)ccc1OC (stereo not given)	i
CCC(=O)Nc1ccc(Br)c(C)n1	11.8%
CC(=O)Nc1ccccc1C(=O)OCc1cccc(C(=O)c2ccccc2)c1	1.7%
COc1ccccc1C(=O)NCCNC(=O)c1ccco1	i
O=C(CN1C(=O)C2C3CCC(C3)C2C1=O)N1CCN(Cc2ccccc2)CC1 (stereo not given)	i
N#Cc1cccc(NC(=O)CCC(=O)Nc2cccc(C#N)c2)c1	i
O=[N+]([O-])c1ccc(C(=S)N2CCN(c3ccc(F)cc3)CC2)cc1	0.5%

Of the compounds above, 17 contain fluorine:
SMILES	Mtb H37Rv
Fc1ccc(N2CCN(C(=S)Nc3ccc(Oc4ccccc4)cc3)CC2)cc1	i
O=C(O)C1CCCCC1C(=O)Nc1ccc(Cl)cc1F (stereo not given)	i
O=C(CCc1ccccc1)Nc1cc(C(F)(F)F)ccc1N1CCOCC1	i
O=C(Nc1cccnc1)c1cnn2c(C(F)F)cc(C3CC3)nc12	i
CC(C)CNS(=O)(=O)c1ccc(CCC(=O)Nc2ccc(Br)cc2F)cc1	i
COc1ccc(S(=O)(=O)N2CCC(C(=O)N3CCN(c4ccccc4F)CC3)CC2)cc1	0.1%
Cc1cc(Br)ccc1OCC(=O)Nc1cccc(F)c1	i
O=C(CC(O)(c1ccccc1)C(F)(F)F)c1cccs1 (stereo not given)	2.0%
O=C(Nc1cccc(C(F)(F)F)c1)N1CCN(C(c2ccccc2)c2ccccc2)CC1	i
O=C(Nc1cc(C(F)(F)F)cc(C(F)(F)F)c1)c1cccc(S(=O)(=O)N2CCOCC2)c1	i
CC1CCCCN1S(=O)(=O)c1ccc(Cl)c(C(F)(F)F)c1 (stereo not given)	i
CN(C(=O)c1c(F)c(F)c(F)c(F)c1F)C(C)(C)C	5.5%
CCc1ccc(NC(=O)c2ccccc2C(F)(F)F)cc1	i
O=C(c1ccccc1F)N1CCN(Cc2cccc(Oc3ccccc3)c2)CC1	i
Cc1ccc(-c2csc(NC(=O)CSc3nnc(CNC(=O)c4ccccc4F)n3-c3ccccc3)n2)cc1	i
COc1ccc(C2C(C(=O)Nc3cc(C(F)(F)F)ccc3Cl)=C(C)NC3=C2C(=O)CCC3)cc1 (stereo not given)	i
O=[N+]([O-])c1ccc(C(=S)N2CCN(c3ccc(F)cc3)CC2)cc1	0.5%

Assay outcomes as filed in PubChem.

The list is partial; the hit share may differ from the screen's.
